EPAC1 agonist: human EPAC1 agonism, validation. O95398. EPAC1 Rap1b BODIPY-GDP exchange, fluorescence. Potency, µM, for inactives: max response, positive = active, most hits filed as activators. actives 1% (n = 16,000). AID 1645883; active = well fitted activation curve with a large enough effect; inconclusive = small, poorly fitted or top-dose-only effect; inactive = no such curve, though single readings can be large or run the other way;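 also: nearly all actives have a fitted effect of over 70% in size; series mostly up to about 76 or 150 µM; scaled to a cAMP control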
Target sequence (O95398 whole entry, looked up): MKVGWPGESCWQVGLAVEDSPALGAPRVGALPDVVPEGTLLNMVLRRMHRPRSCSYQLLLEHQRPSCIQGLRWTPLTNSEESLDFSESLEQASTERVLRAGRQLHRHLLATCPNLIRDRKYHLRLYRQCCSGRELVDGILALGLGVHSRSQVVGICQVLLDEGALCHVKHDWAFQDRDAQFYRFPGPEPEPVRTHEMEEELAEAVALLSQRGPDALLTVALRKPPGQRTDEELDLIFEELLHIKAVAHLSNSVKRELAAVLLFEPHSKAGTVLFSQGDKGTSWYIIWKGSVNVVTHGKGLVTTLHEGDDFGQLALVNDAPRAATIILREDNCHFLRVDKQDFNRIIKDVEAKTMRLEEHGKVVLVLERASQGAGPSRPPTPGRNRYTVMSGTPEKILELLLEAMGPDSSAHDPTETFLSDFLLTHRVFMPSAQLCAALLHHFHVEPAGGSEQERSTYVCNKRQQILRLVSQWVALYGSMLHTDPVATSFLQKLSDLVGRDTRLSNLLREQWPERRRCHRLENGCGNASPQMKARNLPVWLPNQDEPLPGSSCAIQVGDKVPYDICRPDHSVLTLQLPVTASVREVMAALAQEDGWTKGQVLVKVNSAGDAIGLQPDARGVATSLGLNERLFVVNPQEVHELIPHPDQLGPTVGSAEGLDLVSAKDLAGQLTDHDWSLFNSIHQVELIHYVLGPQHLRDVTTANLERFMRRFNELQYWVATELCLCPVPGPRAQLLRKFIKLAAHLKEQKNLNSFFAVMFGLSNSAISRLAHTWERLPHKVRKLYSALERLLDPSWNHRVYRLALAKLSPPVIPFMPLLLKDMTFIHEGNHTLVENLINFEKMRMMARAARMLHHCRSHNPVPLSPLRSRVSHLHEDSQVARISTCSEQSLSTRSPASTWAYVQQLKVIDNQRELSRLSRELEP
The depositor's hits bear a star; ? = inconclusive; & = joins results of further samples; ! = not active in a repeat; [ ] = dose if it differs, or a comment. % is scaled to controls: 0 for no effect and ±100 for the full control effect; potency is read from the fitted curve at half-maximal effect. Not all compounds are listed; the hit share may differ from the screen's.

SMILES	EPAC1 agonist
CN(CC(=O)O)c1ccc(/C=C/c2ccnc3ccccc23)cc1	?
CN1CCC2(CCN3CCc4c(oc5ccccc45)C3C2)N(C)C1=O (stereo not drawn)	-6%
C=NCc1cc2c(OC[C@@H](O)CNC(C)(C)C)cccc2[nH]1	-11%
Cc1ccc(C(=O)Nc2cccc(-c3nc(CNC(=O)c4ccc(F)cc4Cl)c(C)o3)c2)s1	15%
NC(Cc1cc(I)c(Oc2cc(I)c(O)c(I)c2)c(I)c1)C(=O)O (stereo not drawn)	8%
O=C(c1cn(C2CCCN(Cc3cc(Cl)ccc3O)C2)nn1)N1CCCCC1 (stereo not drawn)	-3%
COc1cc2ncc(-c3ccccc3)nc2cc1OC	-3%&-8%
O=C(Nc1ccccc1)[C@@]12C[C@@H]1/C(=N/O)c1ccccc1O2	9%
N#CCCn1c(=O)c(-c2ccc(Cl)cc2)nc2cnc(Oc3ccccc3)nc21	-26%
COc1ccc(NC(=O)N2CC3(CCN(C(=O)c4ccncc4)CC3)C2)cc1	21%
NC(=O)[C@@H]1CCCN1C(=O)c1cc(NC(=O)c2ccccc2)cc2ncn(C3CCCC3)c12	15%
COc1ccc(C(=O)c2ccccc2O)c(O)c1	-4%&21%
CN(C)C(N)=NCCC[C@H](N)C(=O)O	-7%
CN1CCN(c2ncncc2-c2ccccc2C(F)(F)F)CC1	4%
O=C(O)CCCCCCCCc1cn(Cc2ccc(C(=O)c3ccccc3)cc2)nn1	-18%
O=c1cnc2cnc(Oc3ccccc3)nc2n1C1CC1	1%
Cc1ccccc1CNc1ncnc2c1ncn2C1OC(CO)C(O)C1O (stereo not drawn)	-4%
CCOc1ccc2c(c1)C(C)=CC(C)(C)N2	-1%&14%
CCCCCCCCCCCCCCCC[n+]1ccc(/C=C/c2c[nH]c3ccccc23)cc1	?
CC(C)C[C@@H](CC#N)N1CCN(Cc2ccccc2)CCC1=O	22%
Cn1nnnc1SCC1=C(C(=O)O)N2C(=O)[C@@H](NC(=O)[C@H](O)c3ccccc3)[C@H]2SC1	-24%
OCC1O[C@H](O)C(Cl)C(O)C1O (stereo partly drawn)	-3%
COc1ccccc1CNc1ccnc(-c2ccccc2Cl)n1	25%
COC(=O)[C@@H]1[C@H]2C[C@H]3c4[nH]c5ccccc5c4CCN3C[C@H]2CC[C@@H]1O	-14%
c1csc(CNc2nc(-c3ccoc3)nc3ccccc23)c1	7%
COc1cccc(-c2nc(N(C)C)c3ccccc3n2)c1	17%
CCS(=O)(=O)Nc1cc(C(=O)N2C[C@@H](C)O[C@@H](C)C2)c2c(c1)nc(-c1ccccc1)n2C	19%
Cc1oc(-c2ccccc2NC(=O)C2CCCO2)nc1CNC(=O)c1cc(Cl)ccc1F (stereo not drawn)	-4%
CCCCCCCCCc1ccc(OCCOCCO)cc1	-116%[inhibitor]
CN(C)C(=O)/N=N/C(=O)N(C)C	1%
CCN(CC)CCOC(=O)C1(c2ccc([N+](=O)[O-])cc2)CCCC1	1%&-6%
CCCC(=O)c1cc(O)c(O)cc1O	11%
CC(C)NCC(O)COc1ccc(CC(N)=O)cc1 (stereo not drawn)	1%&-5%&2%
COc1ncc2nc(-c3cn(C)c4ccccc34)c(=O)n(Cc3ccc(F)cc3)c2n1	-8%
NC(=O)NNc1ccccc1	-22%&-14%
N#Cc1cccc(-c2cncnc2-n2ccnc2)c1	-9%
Cc1ccc(C(=O)Nc2ccc(S(=O)(=O)O)c3cc(S(=O)(=O)O)cc(S(=O)(=O)O)c23)cc1NC(=O)c1cccc(NC(=O)Nc2cccc(C(=O)Nc3cc(C(=O)Nc4ccc(S(=O)(=O)O)c5cc(S(=O)(=O)O)cc(S(=O)(=O)O)c45)ccc3C)c2)c1	89µM*!
CCN1CCC[C@H]1CNC(=O)c1c(O)c(Cl)cc(Cl)c1OC	-4%&5%&-8%
CC(=O)[C@H]1CC[C@H]2[C@@H]3C=CC4=CC(=O)CC[C@@]4(C)[C@H]3CC[C@]12C	-34%[inhibitor]
CCCCCc1c2c(cc(O)c1C(=O)O)OC(=O)c1c(cc(OC)cc1C(=O)CCCC)O2	13%
COc1ccc2[nH]cc(CCNc3ccnc(-c4cccc(NS(C)(=O)=O)c4)n3)c2c1	?
COc1ccccc1N1CCN(c2nc(CNC(=O)C3CC34CCCC4)nc3ccccc23)CC1 (stereo not drawn)	14%
CCc1noc(C)c1C(=O)NCCN1Cc2cc(OC)ccc2OC(CC)C1 (stereo not drawn)	-2%
COc1ccc(OC)c(CN2CCC3(CCC(CNC(=O)c4ccco4)O3)CC2)c1 (stereo not drawn)	-2%
CC(=O)NCC(=O)N[C@H](CCC(=O)O)C(=O)O	-16%
CCc1nc2cc(C(=O)N(C)CC3COCCO3)cc(NC(=O)c3ccccc3OC)c2n1C (stereo not drawn)	-11%
COCCCC/C(=N\OCCN)c1ccc(C(F)(F)F)cc1	-2%
N#C/C(=C\c1ccc(-c2cc(Cl)ccc2Cl)o1)C(=O)Nc1cccc2ncccc12	-8%
COc1ccc2c(C)cc(=O)oc2c1	10%
CCCCN1CC[C@H]2C=CC[C@@H](C(=O)N3CCN(c4ccccc4)CC3)[C@H]2C1=O	?

An excerpt of these results, in CSV form:
SMILES,EPAC1 agonist
COc1ccc2c(C)cc(=O)oc2c1,10%
CCCCN1CC[C@H]2C=CC[C@@H](C(=O)N3CCN(c4ccccc4)CC3)[C@H]2C1=O,?

Later entries:
SMILES	EPAC1 agonist
Cc1nc2cnc(N(C)C)nc2n(C)c1=O	-73%[inhibitor]
O=C(/C=C/c1ccc(O)c(O)c1)OC(Cc1ccc(O)c(O)c1)C(=O)O (stereo not drawn)	16%&4%
COCCn1c(=O)c(-c2cc(F)cc(F)c2)nc2cnc(Oc3cccc(Cl)c3)nc21	-1%
COc1ccc(C(=O)N2CCC3(CCCN(c4ccccc4)C3)CC2)cc1	-20%
O=C(Cn1cccn1)N1CCOc2c(cc(-c3ncc(C(F)(F)F)cc3Cl)cc2OCC2CCCO2)C1 (stereo not drawn)	-10%
CN1C2CCC1CC(OC(c1ccccc1)c1ccccc1)C2 (stereo not drawn)	2%
Cc1ncc2c(c1CNC(=O)c1cncs1)CCN(C(=O)c1ccc(-c3ccccc3)cc1)C2	8%
COc1cccc(-c2cncnc2-n2ccnc2)c1	-29%
CC(C)=CCc1c2c(c(O)c3c(=O)c(O)c(-c4ccccc4)oc13)C=CC(C)(C)O2	-34%
CCOC(=O)c1ccc(O)cc1	19%
Cc1c(C)c2c(c(C)c1OC(=O)c1cccnc1)CC[C@@](C)(CCC[C@H](C)CCC[C@H](C)CCCC(C)C)O2	-14%
O=C(c1cnccn1)N1CCC2(CCN(Cc3ccncc3)CC2)CC1	-16%
COc1ccc(Oc2ncc3nc(C)c(=O)n(C)c3n2)cc1	-12%
Cc1cccnc1-c1cccc2c1OC(CNC(=O)Cc1c(C)noc1C)C2 (stereo not drawn)	-9%
CC(C)CN1CCC2(CC1)CCN(S(=O)(=O)c1ccccc1)CC2	-51%[inhibitor]
CC(NC(=O)c1ccco1)c1nnc2n1CCN(Cc1ccc(Cl)cc1)CC2 (stereo not drawn)	-1%
C[N+]1(CC(=O)c2ccc(-c3ccccc3)cc2)CCOCC1	6%
COc1ccc(C(=O)N2CCC3(CCN(CC(C)C)CC3)CC2)cc1	-45%[inhibitor]
Cc1cccc(CN2CCc3nnc(C(C)NC(=O)C4CCOCC4)n3CC2)c1 (stereo not drawn)	-21%
Cn1cc(-c2nc3cncnc3n(Cc3ccc(F)cc3)c2=O)c2ccccc21	-30%

20 entries from above, as comma-separated lines.
mol,EPAC1 agonist
Cc1nc2cnc(N(C)C)nc2n(C)c1=O,-73%[inhibitor]
O=C(/C=C/c1ccc(O)c(O)c1)OC(Cc1ccc(O)c(O)c1)C(=O)O (stereo not drawn),16%&4%
COCCn1c(=O)c(-c2cc(F)cc(F)c2)nc2cnc(Oc3cccc(Cl)c3)nc21,-1%
COc1ccc(C(=O)N2CCC3(CCCN(c4ccccc4)C3)CC2)cc1,-20%
O=C(Cn1cccn1)N1CCOc2c(cc(-c3ncc(C(F)(F)F)cc3Cl)cc2OCC2CCCO2)C1 (stereo not drawn),-10%
CN1C2CCC1CC(OC(c1ccccc1)c1ccccc1)C2 (stereo not drawn),2%
Cc1ncc2c(c1CNC(=O)c1cncs1)CCN(C(=O)c1ccc(-c3ccccc3)cc1)C2,8%
COc1cccc(-c2cncnc2-n2ccnc2)c1,-29%
CC(C)=CCc1c2c(c(O)c3c(=O)c(O)c(-c4ccccc4)oc13)C=CC(C)(C)O2,-34%
CCOC(=O)c1ccc(O)cc1,19%
Cc1c(C)c2c(c(C)c1OC(=O)c1cccnc1)CC[C@@](C)(CCC[C@H](C)CCC[C@H](C)CCCC(C)C)O2,-14%
O=C(c1cnccn1)N1CCC2(CCN(Cc3ccncc3)CC2)CC1,-16%
COc1ccc(Oc2ncc3nc(C)c(=O)n(C)c3n2)cc1,-12%
Cc1cccnc1-c1cccc2c1OC(CNC(=O)Cc1c(C)noc1C)C2 (stereo not drawn),-9%
CC(C)CN1CCC2(CC1)CCN(S(=O)(=O)c1ccccc1)CC2,-51%[inhibitor]
CC(NC(=O)c1ccco1)c1nnc2n1CCN(Cc1ccc(Cl)cc1)CC2 (stereo not drawn),-1%
C[N+]1(CC(=O)c2ccc(-c3ccccc3)cc2)CCOCC1,6%
COc1ccc(C(=O)N2CCC3(CCN(CC(C)C)CC3)CC2)cc1,-45%[inhibitor]
Cc1cccc(CN2CCc3nnc(C(C)NC(=O)C4CCOCC4)n3CC2)c1 (stereo not drawn),-21%
Cn1cc(-c2nc3cncnc3n(Cc3ccc(F)cc3)c2=O)c2ccccc21,-30%

New compounds follow
SMILES	EPAC1 agonist
COc1ccc(NC(=O)N2CC3(CCN(C(=O)c4cccc(F)c4)CC3)C2)cc1	-3%
COc1ccc(-c2nc3cc(F)ccc3cc2CN(C(=O)c2cccc(OC)c2)C2CC2)cc1	-1%
CO/N=C(\C(=O)N[C@@H]1C(=O)N2C(C(=O)OCOC(=O)C(C)(C)C)=C(/C=C\c3scnc3C)CS[C@H]12)c1csc(N)n1	-44%[inhibitor]
CO[C@@H]1[C@@H](O[C@@H]2O[C@H](C)[C@@H](O[C@H]3C[C@@](C)(O)[C@@H](O)[C@H](C)O3)[C@H](N(C)C)[C@H]2O)[C@@H](CC=O)C[C@@H](C)[C@@H](O[C@@H]2CC[C@H](N(C)C)[C@@H](C)O2)/C=C/C=C/C[C@@H](C)OC(=O)C[C@H]1O	-3%
Cc1csc[n+]1CC(=O)c1ccccc1	?
CC[C@@H](C)[C@@H](CO[C@@H](Cc1ccccc1)C(=O)N[C@@H](CCS(C)(=O)=O)C(=O)OC(C)C)NC[C@@H](N)CS	-9%
COc1ccc(NC(=O)N2CCCC3(CCN(C(=O)c4c(C)noc4C)CC3)C2)cc1	-50%[inhibitor]
CCO[C@@H]1O[C@H](C(COCc2ccccc2)OCc2ccccc2)[C@H](OCc2ccccc2)[C@H]1O (stereo partly drawn)	-23%
Cc1cnc(-n2ncc(C(=O)N[C@H]3CCCCNC3=O)c2C2CC2)nc1-c1cccs1	-13%
CNC(=O)c1c(I)c(C(=O)NCC(=O)Nc2c(I)c(C(=O)O)c(I)c(C(=O)NCCO)c2I)c(I)c(N(C)C(C)=O)c1I	1%
CCOC(=O)/C=C1\CN(Cc2cc(OC)c(OC)c(OC)c2)S(=O)(=O)c2ccc(C(F)(F)F)cc21	-54%[inhibitor]
CNc1nc(-c2ccccc2C(F)(F)F)nc2ccccc12	12%
CCOC(=O)c1ccc(C#Cc2ccc3c(c2)C(C)(C)CCS3)nc1	12%
COc1ccc2c(c1)OCC(Cc1ccc(O)c(OC)c1)C2=O (stereo not drawn)	-12%
COc1ccc(CNc2cc(-c3ccccc3Cl)ncn2)c(OC)c1	?
CN(C)CCc1c[nH]c2ccc(CS(=O)(=O)N3CCCC3)cc12	?
CCCCOc1cc(CC2CNC(=O)N2)ccc1OC (stereo not drawn)	-1%&-7%&-24%
COc1ccccc1CNc1ccnc(-c2ccc(C(=O)N(C)C)cc2)n1	6%
COCCNc1nc(-c2ccccc2CN(C)C)nc2ccccc12	25%
O=C(NCc1cccnc1)c1cnn(-c2nccc(-c3cccs3)n2)c1C1CC1	-8%
CC(C)OC(=O)Nc1ccc2nc(-c3cscn3)[nH]c2c1	-25%
Cc1cnc(CNc2ccnc(-c3ccc(C(=O)N(C)C)cc3)n2)cn1	-14%
C/C1=C/CC(C)(C)/C=C/C/C(C)=C/CC1	-52%[inhibitor]
COc1ccccc1CNc1ccnc(-c2cccnc2)n1	1%
CC(C)CC(NC(=O)OCC1c2ccccc2-c2ccccc21)C(=O)O (stereo not drawn)	23%
COc1ccc(Oc2ncc3nc(-c4ccc(Cl)cc4)c(=O)n(C4CC4)c3n2)cc1	-3%
CC(C)NC[C@H](O)COc1cccc2[nH]ccc12	-3%&-10%&-2%
CCc1cccc2c(C(O)(c3c[nH]c4c(CC)cccc34)c3c[nH]c4c(CC)cccc34)c[nH]c12	-17%
NCCS	-1%&14%&-4%&3%
CC(=O)OCC1OC(Oc2cc(OC(C)=O)c3c(=O)cc(-c4ccc(OC(C)=O)cc4)oc3c2)[C@@H](OC(C)=O)C(OC(C)=O)C1OC(C)=O (stereo partly drawn)	-29%
CN(C)CCOc1ccc(/C(=C(/CCCl)c2ccccc2)c2ccccc2)cc1	16%
C=CCN1CCN(c2nc3ccccc3nc2C#N)CC1	-18%&5%
COc1cc(=O)n2c(c1C(=O)N(C)Cc1nonc1C)CCN(Cc1c(F)cccc1F)CC2	-13%
COc1ccc(-c2cc(=O)c3c(OC(C)=O)cc(OC(C)=O)cc3o2)cc1	21%
CCCS(=O)(=O)NCc1c(C)ncc2c1CCN(C(=O)/C=C/c1ccc(F)cc1F)C2	-5%
Nc1ncnc2c1ncn2[C@@H]1O[C@H](COP(=O)(O)OP(=O)(O)O)[C@@H](O)[C@H]1O	-1%&6%
N[C@H](Cn1ccc(=O)n(Cc2ccccc2C(=O)O)c1=O)C(=O)O	0%
O=C(c1cccc(F)c1)N1CCC[C@@]2(CCN(Cc3ccccc3)C2)C1	12%
CC(=O)N1CCC2(CCCN(c3ccncc3)C2)CC1	26%
O=c1c(-c2cccc(F)c2)nc2cncnc2n1-c1ccccc1	-41%[inhibitor]

Screens deposited in PubChem BioAssay by National Center for Advancing Translational Sciences (NCATS).
